Screening results deposited in PubChem BioAssay by National Center for Advancing Translational Sciences (NCATS).
gsp ag: qHTS for Agonist of gsp, the Etiologic Mutation Responsible for Fibrous Dysplasia/McCune-Albright Syndrome: qHTS. hit rate 0.13% among 340,000. Potency, µM (titrated, usually from 76.9 µM), without a hit: top-dose activation (cAMP increase), hits mostly activators. gsp mutant cells, cAMP HTRF, 30 min; control for the full effect not named in the record. AID 624287, 2012; active = well fitted activation curve with a large enough effect; inconclusive = small, poorly fitted or top-dose-only effect, or another doubt; inactive = no such curve, though single readings can be large or run the other way; cell line not stated here;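 also: phosphodiesterase inhibitor Ro 20-1724 added with compounds to block cAMP breakdown; potency is read from the fitted curve at half-maximal effect; nearly all actives have a fitted effect of over 60% in size; about a fifth of the inactives were tested at one dose only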
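Cells in DMEM/10% FBS with G418 were pretreated with compounds in DMSO plus […] (300 uM stock) for 30 min at 37C. cAMP was measured by HTRF (cAMP-d2 plus anti-cAMP antibody-K) after 30 min at room temperature.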
gsp antagonist: qHTS for Antagonists of gsp, the Etiologic Mutation Responsible for Fibrous Dysplasia/McCune-Albright Syndrome: qHTS. hit rate 0.4% among 340,000. Potency, µM (top dose mostly 76.9 µM), without a hit: at the top dose activity change, negative = inhibition, usual class: inhibitors. gsp-mutant cells, cAMP HTRF, 30 min; control for the full effect not named in the record; active = falling curve of any shape with a large fitted effect; inconclusive = falling curve, mostly with a smaller effect; inactive = flat or rising curve; cell line not stated here;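 also: intracellular cAMP measured with PDE inhibitor Ro 20-1724 present during compound exposure; potency is read from the fitted curve at half-maximal effect; % is scaled to controls: 0 for no effect and ±100 for the full control effect; nearly all actives have a fitted effect of over 65% in size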
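G418-selected cells were plated in DMEM/10% FBS for 16-24 h at 37C, then treated with compounds plus the PDE inhibitor […] (300 uM solution added) for 30 min at 37C. Intracellular cAMP was measured by HTRF after 30 min lysis at room temperature.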
TRPML1 blocker: qHTS for Inhibitors of the Human Mucolipin Transient Receptor Potential 1 (TRPML1) | Mucolipin-1 (Homo sapiens), Q9GZU1 | TRPML1-inducible cells, Ca2+ dye fluorescence, FDSS; active compounds read low; inhibition of EC80 agonist-evoked calcium signal | hit rate 0.02% among 390,000 | activity change, negative = inhibition, % (concentration not given with the values); in the data active means activity change below about -50%; inconclusive means about -30% to -50%; inactive means above about -30%;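 also: stimulus is agonist 54-4 at its EC80 concentration; % is scaled to controls: 0 for no effect and ±100 for the full control effect; the text of the record puts the active cut at -80%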
Target sequence (Q9GZU1 whole entry, looked up): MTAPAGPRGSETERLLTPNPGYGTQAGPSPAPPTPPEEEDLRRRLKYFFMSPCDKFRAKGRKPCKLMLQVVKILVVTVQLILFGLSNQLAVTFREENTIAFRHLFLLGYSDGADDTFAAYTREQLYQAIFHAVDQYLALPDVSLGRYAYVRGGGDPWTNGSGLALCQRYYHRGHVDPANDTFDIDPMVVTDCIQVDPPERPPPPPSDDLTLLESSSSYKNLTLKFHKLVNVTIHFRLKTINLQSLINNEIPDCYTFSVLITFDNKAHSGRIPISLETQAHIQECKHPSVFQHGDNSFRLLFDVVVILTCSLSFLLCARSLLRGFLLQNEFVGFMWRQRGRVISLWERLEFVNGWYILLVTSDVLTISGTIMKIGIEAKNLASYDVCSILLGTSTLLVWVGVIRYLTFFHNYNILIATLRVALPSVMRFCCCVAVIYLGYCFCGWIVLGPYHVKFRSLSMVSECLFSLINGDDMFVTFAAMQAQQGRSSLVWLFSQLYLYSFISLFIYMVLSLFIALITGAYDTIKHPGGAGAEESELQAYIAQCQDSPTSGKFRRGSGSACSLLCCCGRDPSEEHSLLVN
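TRPML1-DL cells, Tet-induced overnight (~16 h, 37 °C) at 1,500 cells/well, were loaded with Ca8 no-wash dye plus quencher for 45-90 min at room temperature. Compounds were pinned during FDSS kinetic reading; agonist 54-4 at EC80 (4 uM final) then added.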
TRPML1 ag: qHTS for Agonists of the Human Mucolipin Transient Receptor Potential 1 (TRPML1); Mucolipin-1 (Homo sapiens), Q9GZU1; TRPML1-expressing cells, Ca2+ dye fluorescence, FDSS; host cell line not named in the record; reference of the full effect not given here; activation, % (no concentration beside the values); hit rate 0.12% among 410,000; AID 624414, 2012; in the data active = activation above about 50%; inconclusive = about 30% to 50%; inactive = below about 30%; also: 0% is about no effect; the text of the record puts the active cut at 80%
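Tetracycline-induced TRPML1-DL cells are seeded and incubated overnight before loading with a no-wash Ca2+ dye and quencher. Agonist activity is taken from the 110 s fluorescence read following compound pin-transfer on an FDSS, before EC80 54-4 challenge.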
ClpP mod: qHTS Assay for Activators of ClpP; ATP-dependent Clp protease proteolytic subunit (Bacillus subtilis (strain 168)), P80244; purified B. subtilis ClpP, FRET peptide cleavage, 20 min; Potency, µM (highest dose often 57.5 µM), for inactives: at the highest dose activity change, negative = active; hit rate 1.9% among 340,000; AID 651965, 2013; active = well fitted falling curve with a large enough effect; inconclusive = small, poorly fitted or top-dose-only effect; inactive = no such curve, though single readings can be large or run the other way; also: potency is read from the fitted curve at half-maximal effect; the source files actives as falling curves though it sought activators and does not explain the sign; nearly all actives have a fitted effect of over 65% in size; many hits overshoot -100%
Target sequence (P80244 whole entry, looked up): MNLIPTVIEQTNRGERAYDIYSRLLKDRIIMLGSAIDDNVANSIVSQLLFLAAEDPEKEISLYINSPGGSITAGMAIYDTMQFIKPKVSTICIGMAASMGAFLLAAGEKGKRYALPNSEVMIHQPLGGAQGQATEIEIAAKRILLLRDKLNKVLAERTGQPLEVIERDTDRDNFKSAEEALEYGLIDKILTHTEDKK
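Purified B. subtilis ClpP, 10 microg/mL final in Tris/HCl pH8 with KCl, BSA, glycerol and Tween-20, cleaved an Abz/nitrotyrosine-quenched decapeptide. Fluorescence (ex 320, em 430) was read at 0 and 20 min at room temperature. Delta was normalized to 5.8 microM ADEP and DMSO/no-enzyme controls.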
Menin MLL FP FL: qHTS Assay for Inhibitors Targeting the Menin-MLL Interaction in MLL Related Leukemias: Competition With Fluorescein Labeled MLL-derived Peptide. FP activity change, % at 61.4 µM. AID 1766, 2009. Fluorescence polarization, fluorescein-MLL peptide displacement from menin. 290,000 tested, under 10 active; inconclusive = falling polarisation curve, or a change in total fluorescence; inactive = total fluorescence flat and polarisation flat or rising; no compound was filed as active; the % refers to the polarisation; negative = inhibition;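 also: % of control where 0% means no effect; inhibitors lower the polarisation; unlabelled MLL peptide was the positive control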
Numbers without * were called inactive; [ ] = another dose, or the depositor's remark. An unsorted share of the library; about 2.1% have a hit in one of these screens.

For C=CCn1c(-c2cccn(Cc3ccc(Cl)cc3)c2=O)n[nH]c1=S the results were gsp ag -26.6%, gsp antagonist -17.8%, TRPML1 blocker -7.2, TRPML1 ag -0.2, ClpP mod 22.5% and Menin MLL FP FL 2.3.
`COc1ccc(N2CCN(c3cnc4ccccc4n3)CC2)cc1` gave gsp ag inconclusive, gsp antagonist 0.0%, TRPML1 blocker 4.8, TRPML1 ag 2.1 and Menin MLL FP FL -3.6.
COc1ccccc1C(C(C(=O)c1ccccc1)N1CCOCC1)N1CCOCC1 (configuration not stated) was read as gsp ag 35.3%, gsp antagonist 0.9%, TRPML1 blocker 10.0 and TRPML1 ag -1.3.
`COc1ccc(C2OC(=O)c3ccccc3S2)cc1` (configuration not stated) gave gsp ag -12.5%, gsp antagonist -16.2%, TRPML1 blocker -0.8, TRPML1 ag 0.6, ClpP mod 0.6% and Menin MLL FP FL 1.9.
CC(C)(C)S(=O)(=O)c1ccsc1C(=O)O was read as gsp ag -0.4%, gsp antagonist 9.4%, TRPML1 blocker 1.4, TRPML1 ag -0.6, ClpP mod -0.4% and Menin MLL FP FL 1.2.
For COc1cc2c(c(Br)c1N)-c1cc(Br)c(N)cc1C2=O the results were gsp ag -44.7%[inhibitor], TRPML1 blocker -22.6, TRPML1 ag -0.1 and ClpP mod -3.5%.
`Cc1ccccc1C(=O)Nc1cc(S(=O)(=O)N2CCCCC2)ccc1N1CCN(C)CC1` gave gsp ag -3.6%[15.4 µM], gsp antagonist -7.5%, TRPML1 blocker -19.6, TRPML1 ag 0.0, ClpP mod 1.9% and Menin MLL FP FL 5.2.
For Cc1ccc(OCc2ccc(C(=O)NCC3CCCO3)cc2)cc1C (configuration not stated) the results were gsp ag 14.9%, gsp antagonist -3.6%, TRPML1 blocker -4.1, TRPML1 ag 0.1 and ClpP mod 0.7%.
`CC1CCCN(C(=O)COC(=O)Cc2c(F)cccc2Cl)C1` (configuration not stated) gave gsp ag 5.6%[15.4 µM], gsp antagonist 8.7%, TRPML1 blocker 1.5, TRPML1 ag 0.0 and Menin MLL FP FL 0.8.
For CCN(CCCNC(=O)CC1Oc2ccc(C)cc2NC1=O)Cc1ccccc1 (configuration not stated) the results were gsp ag 11.5%, gsp antagonist 10.8%, TRPML1 blocker 23.5, TRPML1 ag 1.7, ClpP mod -2.7% and Menin MLL FP FL 0.1.
For O=C(COC(=O)c1ccc(S(=O)(=O)NCc2ccco2)cc1)c1ccccc1 the results were gsp ag 13.1%[15.4 µM], gsp antagonist -12.3%, TRPML1 blocker -11.4, TRPML1 ag -0.5, ClpP mod 0.1% and Menin MLL FP FL 6.3.
`Cn1c(=O)[nH]c(=O)c2c1nc(N1CCNCC1)n2Cc1ccccc1Cl` gave gsp ag 17.7%, gsp antagonist -33.4%, TRPML1 blocker 36.5, TRPML1 ag -0.5, ClpP mod 0.4% and Menin MLL FP FL -5.9.
`NCCOc1ccc(C23CC4CC(CC(C4)C2)C3)cc1` gave gsp ag -13.0%, gsp antagonist 5.9%, TRPML1 blocker -1.2, TRPML1 ag 3.4, ClpP mod 0.0% and Menin MLL FP FL 1.5.
For C/C=C/C=N/Nc1nc(-c2ccc([N+](=O)[O-])cc2)cs1 the results were gsp ag -28.9%, gsp antagonist -2.1%, TRPML1 blocker 7.9, TRPML1 ag 0.2, ClpP mod -4.0% and Menin MLL FP FL 1.5.
`Cc1ccc(C(=O)NN2C(=O)c3ccc(S(=O)(=O)c4ccc(C(=O)O)cc4)cc3C2=O)cc1` gave gsp ag 7.6%[15.4 µM], TRPML1 blocker 21.6, TRPML1 ag -1.0 and Menin MLL FP FL 0.0.
For CCOC(=O)c1sc2nc(C)nc(Nc3ccc(OC)cc3)c2c1C the results were gsp ag -3.3%[15.4 µM], gsp antagonist inconclusive, TRPML1 blocker 9.4, TRPML1 ag -1.2, ClpP mod 0.4% and Menin MLL FP FL -4.1.
For c1ccc(Oc2cc(-n3cncn3)ncn2)cc1 the results were gsp ag -0.3%[15.4 µM], gsp antagonist 5.8%, TRPML1 blocker 10.5, TRPML1 ag 0.0, ClpP mod 2.82µM* and Menin MLL FP FL 2.5.
For CCCCNC(=O)C(=O)NCC1CCCN1S(=O)(=O)c1cccs1 (configuration not stated) the results were gsp ag -1.9%, gsp antagonist 10.0%, TRPML1 blocker -6.1, TRPML1 ag -0.5 and ClpP mod -0.7%.
For O=C(COc1cc2oc(=O)c3c(c2cc1Cl)CCC3)Nc1ccccn1 the results were gsp ag 15.7%, gsp antagonist -3.3%, TRPML1 blocker -7.9, TRPML1 ag 0.3, ClpP mod -12.1% and Menin MLL FP FL -2.4.
Cc1[nH]c2ccccc2c1C(c1ccncc1)N1CCN(c2ccccc2F)CC1 (configuration not stated) was read as gsp ag 32.0%, gsp antagonist -0.1%, TRPML1 blocker 0.8, TRPML1 ag 0.5, ClpP mod -0.8% and Menin MLL FP FL -1.9.
Screening CC(=O)OCC(OC(C)=O)C(OC(C)=O)C(OC(C)=O)C(=O)Nc1cccc(C)c1 (configuration not stated) returned gsp ag -6.2%[15.4 µM], gsp antagonist 2.6%, TRPML1 blocker 0.8, TRPML1 ag -0.8, ClpP mod 3.6% and Menin MLL FP FL -8.9.
`COc1ccc(/C=N/NC(=O)Cn2nnc3ccccc32)cc1OC` gave gsp ag 3.3%, gsp antagonist 2.5%, TRPML1 blocker -26.4, TRPML1 ag 0.0, ClpP mod -8.2% and Menin MLL FP FL 6.5.
CSc1ccccc1C(=O)Nc1cc(C)ccc1C was read as gsp ag inconclusive, gsp antagonist 10.0%, TRPML1 blocker 11.9, TRPML1 ag 0.2, ClpP mod -1.2% and Menin MLL FP FL -0.1.
`CCOC(=O)CN1C2=NCCCN2c2ccccc21` gave gsp ag 3.2%[15.4 µM], gsp antagonist 8.9%, TRPML1 blocker -8.9, TRPML1 ag 1.0 and Menin MLL FP FL 2.8.
`COc1ccc(OC)c(Cc2nnc(CCC(=O)NC3C4CC5CC(C4)CC3C5)o2)c1` (configuration not stated) gave gsp ag 0.5%, gsp antagonist -10.9%, TRPML1 blocker -8.3, TRPML1 ag -0.5 and Menin MLL FP FL -5.3.
Screening O=C(CS(=O)c1ccc(Br)cc1)N1CCOCC1 (configuration not stated) returned gsp ag 5.9%, gsp antagonist 9.2%, TRPML1 blocker -6.6, TRPML1 ag 1.6, ClpP mod -1.1% and Menin MLL FP FL 12.4.
For COc1ccc(C(=O)NC2CC2)cc1OC1CCN(Cc2ccccc2F)CC1 the results were gsp ag -53.3%, gsp antagonist 3.9%, TRPML1 blocker 12.8, TRPML1 ag 0.0, ClpP mod 1.7% and Menin MLL FP FL -4.8.
Screening O=C(CCCCCn1c(=S)[nH]c2cc3c(cc2c1=O)OCO3)NCCc1ccccc1 returned gsp ag 1.1%, gsp antagonist -4.4%, TRPML1 blocker -15.4, TRPML1 ag 1.1 and ClpP mod -4.1%.
O=C(Nc1ccccc1)OCCOc1ccccc1 was read as gsp ag -54.8%[inhibitor], gsp antagonist 3.3%, TRPML1 blocker 2.0, TRPML1 ag -0.6, ClpP mod -2.4% and Menin MLL FP FL 1.0.
COCCNC(=O)CN(C(=O)CCC(=O)Nc1cc(C)on1)c1ccc(C)cc1C was read as gsp ag 24.1%, gsp antagonist 1.1%, TRPML1 blocker -7.5, TRPML1 ag 0.5, ClpP mod -1.3% and Menin MLL FP FL 1.8.
For Cc1cccc(Cn2c(CN3CCC(C(=O)NCc4ccccc4Cl)CC3)cc3ccccc32)c1 the results were TRPML1 blocker 22.1, TRPML1 ag 4.0 and ClpP mod -10.7%.
Screening CC(NC(=O)Nc1cccc([N+](=O)[O-])c1)c1ccc2c(c1)OCO2 (configuration not stated) returned gsp ag 29.1%, gsp antagonist -11.2%, TRPML1 blocker 7.3, TRPML1 ag 1.4, ClpP mod -1.1% and Menin MLL FP FL 0.6.
For CC(CCc1ccccc1)NS(=O)(=O)c1ccccc1Cl (configuration not stated) the results were gsp ag -7.9%[15.4 µM], gsp antagonist 2.0%, TRPML1 blocker 1.6, TRPML1 ag 1.0 and Menin MLL FP FL 0.6.
CC(C)CC(OC(=O)c1nsc(Cl)c1Cl)C(=O)NCC1CCCO1 (configuration not stated) was read as gsp ag 33.6%[15.4 µM], gsp antagonist 7.6%, TRPML1 blocker -9.5, TRPML1 ag -0.1 and Menin MLL FP FL -4.5.
For CN(C(=O)CSc1nc2ccccc2[nH]1)c1ccc(F)cc1 the results were TRPML1 blocker -5.3, TRPML1 ag -0.6 and ClpP mod -0.1%.
`CC(=O)N1CCN(c2cc(N3CCc4ccccc4C3)c(F)cc2[N+](=O)[O-])CC1` gave gsp ag -37.3%[inhibitor], gsp antagonist -12.8%, TRPML1 blocker 39.8, TRPML1 ag 0.1, ClpP mod -0.3% and Menin MLL FP FL 0.0.
O=C(CN1CCN(Cc2ccccc2)CC1)Nc1ccc2c(c1)CCC2 was read as gsp ag 4.5%[15.4 µM], gsp antagonist -5.2%, TRPML1 blocker 5.1, TRPML1 ag 2.9 and Menin MLL FP FL -1.5.
Cc1ccc(/C=C/C(=O)O)cc1S(=O)(=O)NCCO was read as gsp ag -2.7%, gsp antagonist -4.7%, TRPML1 blocker -6.1, TRPML1 ag -0.4, ClpP mod -1.7% and Menin MLL FP FL 0.5.
COCCCNC(=O)Cn1cnc2sc(C)c(S(=O)(=O)N3CCC(C)CC3)c2c1=O was read as TRPML1 blocker 3.0, TRPML1 ag -0.4 and ClpP mod -1.0%.
Screening Cc1cccc(Sc2c([N+](=O)[O-])ncn2C)n1 returned gsp ag -14.1%, gsp antagonist 0.6%, TRPML1 blocker -19.6, TRPML1 ag -0.2, ClpP mod -1.5% and Menin MLL FP FL 1.3.
Screening O=C(CCC(=O)N/N=C/c1c[nH]c2ccccc12)NCc1ccccc1 returned gsp ag 13.7%, gsp antagonist 9.5%, TRPML1 blocker -1.6, TRPML1 ag 1.8, ClpP mod -20.3% and Menin MLL FP FL 2.0.
`Cc1cccc(CN2CCC(C(=O)Nc3cccc(-c4cccc(F)c4)c3)CC2)n1` gave gsp ag 15.6%, gsp antagonist -11.1%, TRPML1 blocker -2.1, TRPML1 ag 0.2, ClpP mod -1.4% and Menin MLL FP FL 1.2.
